PrP UTR inh = inhibition of PrP 5' UTR reporter expression; hit rate 0.35% among 340,000; cell-based PrP 5' UTR mRNA reporter, plate reader; inhibition, % (concentration not given with the values);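 active means every replicate at 50% or more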;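 further: 0 = median of the neutral control wells; tested in H4 reporter cells; numbers are from one replicate; inactives centre near -14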
Sa ugtP lethal = growth inhibition of ugtP-null S. aureus, primary screen, RN4220 ugtP deletion, OD600; 16 h; some inactives read as strong as hits; growth inhibition, % (test concentration not listed); hit rate 0.54% among 330,000;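 active means z-score under -3 and OD600 up to 0.15 on both plates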;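 further: plate controls were untreated wells for no effect and antibiotic for full effect; wells of about 80 µL received 100 nL stock; the first replicate is given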
BJeLR viability = MLPCN primary cell-based screen for lethality selective to Ras in HRASV12 cells; inhibition, % (concentration not given with the values); hit rate 0.17% among 300,000; BJeLR (HRASV12) viability, CellTiter-Glo ATP luminescence, 48 h; reference of the scale not given here;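 active means replicate mean above 50%; inconclusive means above 50% but judged a plate artefact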;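 further: 50 nL library stock added to about 25 µL; numbers are from one replicate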
Sa RN4220 lethal = growth inhibition of S. aureus RN4220, primary screen, OD600. 16 h. inhibition, % (test concentration not listed). hit rate 0.33% among 330,000. AID 1259311, 2017;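 active means z-score of -3 or lower and OD600 up to 0.18 on both plates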;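 further: plate controls were untreated cells for no effect and reference antibiotic for full effect; stock transfer was 100 nL into about 80 µL; one replicate is shown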
Autofluor counter = compound fluorescence in toxin protease inhibitor counterscreen. compound autofluorescence counterscreen, microsphere flow cytometry; hits give high values. fluorescence intensity (test concentration not listed). hit rate 3.1% among 360,000. AID 624483;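 active means at least 3 SD above the mean of all compounds, about 16000 in these data; inconclusive means too few beads counted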;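 further: 100 nL of 1 mM stock went into each well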
Mtb hypoxia inh = PubChem AID 1159583 | M. tuberculosis hypoxia-regulated fluorescent reporter, fluorescence | fluorescence inhibition, % (test concentration not listed) | hit rate 0.1% among 300,000;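 active means 35 to 45% if threefold the growth effect, above 45% if 1.5-fold the growth effect; inactive means the rest, general growth blockers included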;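 further: wells of about 50 µL received 100 nL stock; 0% = vehicle wells and 100% = reference inhibitor wells; whole bacteria with a GFP reporter of the hypoxia response; strong numbers were not always called active; many hits fall short of the cut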
Mtb hypoxia inh growth = recorded beside Mtb hypoxia inh, whose call it bears; growth inhibition, %; measured here: M. tuberculosis growth (absorbance);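 0% = vehicle and 100% = reference antibiotic; read after six days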
Starred values were filed as active, the others as inactive; ? = inconclusive; / = not tested or not shown.

SMILES	PrP UTR inh	Sa ugtP lethal	BJeLR viability	Sa RN4220 lethal	Autofluor counter	Mtb hypoxia inh	Mtb hypoxia inh growth
O=c1[nH][nH]c(C(F)(F)F)c1C=NN1CCOCC1	/	2	/	1.3	/	7	5
Cc1cc(C)c2c(c1)NC(=O)C2(O)CC(=O)c1cccs1 (configuration not stated)	-3	0	/	-0.2	3264	/	/
COc1ccc(C(=O)NCc2nnc(SCC(=O)N3CCC(C)CC3)o2)cc1OC	-14	4	-6	2.0	3547	/	/
CCNC(=S)NNc1nc(N2CCOCC2)nc(N2CCOCC2)n1	-16	5	8	5.4	4052	8	0
O=C(NCCS(=O)(=O)N1CCN(c2ccc(F)cc2)CC1)C1CC(=O)N(c2ccccc2)C1 (configuration not stated)	-4	1	-1	2.1	4869	1	-1
CCOC(=O)C1C(=O)N(C(=O)c2cncc(Br)c2)CC1c1ccccc1 (configuration not stated)	-11	0	-3	0.2	4589	16	11
O=C(NCCc1ccc(Cl)cc1)C1CCCN(c2ncnc3c2nc2n3CCCCC2)C1 (configuration not stated)	7	0	-3	0.8	5846	-17	2
C=CCOc1ccc(/C=C/C(C)=N\O)cc1	-71	/	3	/	7655	/	/
Cc1ccc(NC2=CC(=O)C(=O)c3ccccc32)cc1	-5	38	-1	57	16510*	/	/
O=C(CSCc1c(Cl)cccc1Cl)NCc1cccnc1	6	11	0	4.1	8350	2	4
Clc1ccc(CN(Cc2ccc(Cl)cc2)c2nn[nH]n2)cc1	-9	-13	-3	19	2546	1	-4
O=S(=O)(O)c1nnc2sc3ccccc3n12	-13	2	-1	1.9	5126	/	/
COc1ccc(NC(=O)COC(=O)c2ccncc2)c(OC)c1	-1	-4	-6	1.2	2570	7	3
Cc1cc(C(=O)Nc2ccccc2C#N)n(-c2ccccc2)n1	-17	0	0	0.7	6259	/	/
COc1ccc(C(=O)Nc2nc3ccccc3[nH]2)cc1S(=O)(=O)N1CCOCC1	-19	-2	-3	-0.1	3667	-16	1

Quoted at random: two entries already listed
SMILES	PrP UTR inh	Sa ugtP lethal	BJeLR viability	Sa RN4220 lethal	Autofluor counter	Mtb hypoxia inh	Mtb hypoxia inh growth
O=C(CSCc1c(Cl)cccc1Cl)NCc1cccnc1	6	11	0	4.1	8350	2	4
C=CCOc1ccc(/C=C/C(C)=N\O)cc1	-71	/	3	/	7655	/	/

Quoted from the listing:
Result for `O=S(=O)(O)c1nnc2sc3ccccc3n12` in PrP UTR inh: -13
Result for `O=C(NCCS(=O)(=O)N1CCN(c2ccc(F)cc2)CC1)C1CC(=O)N(c2ccccc2)C1` (configuration not stated) in PrP UTR inh: -4
Result for `COc1ccc(C(=O)Nc2nc3ccccc3[nH]2)cc1S(=O)(=O)N1CCOCC1` in Mtb hypoxia inh: -16
Result for `O=c1[nH][nH]c(C(F)(F)F)c1C=NN1CCOCC1` in Sa ugtP lethal: 2
Result for `Clc1ccc(CN(Cc2ccc(Cl)cc2)c2nn[nH]n2)cc1` in BJeLR viability: -3
Result for `C=CCOc1ccc(/C=C/C(C)=N\O)cc1` in PrP UTR inh: -71

The listing continues:
SMILES	PrP UTR inh	Sa ugtP lethal	BJeLR viability	Sa RN4220 lethal	Autofluor counter	Mtb hypoxia inh	Mtb hypoxia inh growth
COc1ccc(CCNC(=O)CSc2nc3scc(-c4ccccc4)c3c(=O)[nH]2)cc1	-14	-4	/	11	?	-7	1
Cc1nc2ccccc2n1Cc1n[nH]c(=S)n1-c1ccc(Cl)cc1	4	3	2	0.9	2034	8	1
COc1cccc(C(=NO)C2CC2c2ccc(Cl)cc2)c1 (configuration not stated)	/	20	/	3.8	/	-3	6
CC(C)CN(C(=O)CSc1nnc2c(Cl)cc(C(F)(F)F)cn12)C1CCS(=O)(=O)C1 (configuration not stated)	-9	4	-2	0.4	11310	9	6
Nc1nnc(CSCc2ccccc2)s1	3	4	5	-4.0	3979	/	/
Cc1noc(C)c1C(=O)Nc1ccccc1N1CCCC1	-10	4	/	7.0	/	8	1
O=C1c2cccc3cccc(c23)C(=O)N1OS(=O)(=O)c1ccc(Cl)cc1	-13	3	7	7.4	2583	-1	-7
Cc1sc2nc(COC(=O)c3c(F)cccc3F)[nH]c(=O)c2c1C	-1	4	-2	3.5	4681	0	6
COc1cc2cc(C(=O)N3CCC(Cc4ccccc4)CC3)[nH]c2cc1OC	-11	-4	-1	0.4	3053	-10	-3
O=C1/C(=C/c2ccco2)CCC1C1CCCC1 (configuration not stated)	-24	20	10	9.8	/	/	/
COc1ccccc1/C=C/C=NNC(=O)c1cc(-c2ccco2)[nH]n1	/	-4	/	-0.8	/	0	3
O=C(/C=C/c1ccccc1)CC(O)(c1ccccc1)C(F)(F)C(F)F (configuration not stated)	-31	0	-9	-6.5	5535	9	0
COc1ccccc1-n1c(O)c(C=Nc2c(C)n(C)n(-c3ccccc3)c2=O)c(=O)[nH]c1=O	-21	0	10	1.0	9986	9	10
C/C(=N/NC(=O)c1ccccn1)c1ccncc1	-18	/	-2	/	3493	/	/
CCC(C)NC(=O)CN(c1ccc(OC)cc1)S(=O)(=O)c1ccccc1 (configuration not stated)	-12	3	-1	3.6	4279	2	11
CC(OC(=O)c1ccc(CN2CCCC2=O)cc1)C(=O)Nc1ccc(Cl)cc1 (configuration not stated)	-10	-1	/	1.7	2821	-11	-6
COc1ccc2oc(C(=O)OCC(=O)N(CC(C)C)c3c(N)n(Cc4ccccc4)c(=O)[nH]c3=O)c(C)c2c1	5	/	22	/	?	/	/
S=C(Nc1ccccc1)N1CCCN1c1ccccc1	-74	-1	-1	-2.6	3890	0	4
C/C(=N\NC(=O)c1ccccc1Br)c1ccc(N2CCOCC2)cc1	0	/	1	/	6820	/	/
Nc1nc2cc(Br)ccc2o1	-18	-5	/	2.6	3568	7	-4
Cc1ccc(NC(=O)CN2C(=O)NC3(CCCCC3)C2=O)cc1S(=O)(=O)N1CCOCC1	-17	-1	/	5.3	4028	10	5
Cc1nc2ccc(S(=O)(=O)N3CCCCC3)cc2s1	3	5	1	5.8	3233	3	-1
O=C(N/N=C/c1cccs1)c1cccc(NC(=O)c2ccccc2Cl)c1	-12	/	-3	/	2092	/	/
COc1cc(/C=N/NC(=O)CNC(=O)c2ccco2)ccc1O	-13	/	-8	/	4873	/	/
Cc1cccc(OCCc2nnc(N)s2)c1C	-4	8	-3	2.8	6734	9	1
O=C(CSc1nnc(-c2cccnc2)s1)Nc1ccnc2ccccc12	-29	6	17	3.3	2190	-9	4
Cc1ccc(-n2nc3cc(Cl)c(NC(=O)c4ccco4)cc3n2)cc1	-56	-9	-2	-6.5	20564*	1	14
CC(CC(=O)Nc1ccccn1)=NNC(=O)c1ccc(C)cc1	/	5	/	1.3	/	4	-3
Cc1nc(NCCN2CCOCC2)c2oc3ccccc3c2n1	-10	4	1	9.0	2911	8	6
O=C(Nc1ccc(Cl)cc1)Nc1nnc(CSCc2ccc(Cl)cc2)s1	-13	2	15	-0.8	2651	3	-8
O=C(c1ccc(S(=O)(=O)N2CCCC2)cc1)N1CCN(c2ccccc2)CC1	-24	6	-6	1.1	3728	6	10
COc1ccc(N(CC(=O)NCCc2ccc(OC)c(OC)c2)S(=O)(=O)c2c(C)noc2C)cc1	-2	6	11	2.1	6043	2	5
CCOC(=O)Cc1c(C)c2c(C)nn(-c3ccccc3)c2oc1=O	-16	5	-6	5.0	6561	7	1
Cc1ccc(C(=O)N(CCCN(C)C)c2nc3ccc(Cl)cc3s2)cc1C	-6	-13	14	-10	?	20	7
COc1ccnc(N2CCN(c3ccc(Cl)cc3)CC2)c1C#N	-2	5	-26	6.7	10111	16	15
Cc1ccc(NC(NC(=O)c2cccnc2)C(Cl)(Cl)Cl)cc1 (configuration not stated)	-15	-6	-3	4.2	10353	-7	-6
O=C(N=c1ccn(-c2nc3ccccc3nc2NS(=O)(=O)c2ccc(Cl)cc2)cc1)c1cccs1	-10	4	12	-3.0	5100	1	12
O=C(CN1C(=O)NC2(CCCC2)C1=O)Nc1cccc(Cl)c1Cl	-4	1	-3	0.6	3036	12	2
COc1ccc(-c2nc(C#N)c(N3CCCCC3)o2)cc1	-4	14	1	0.8	3499	10	7
C=CCNC(=O)C(=O)NCCCN1CCOCC1	-31	-1	7	3.9	4145	8	7
O=C(C(Cc1ccccc1)N1C(=O)C2C3CCC(C3)C2C1=O)N1CCCCC1 (configuration not stated)	-4	8	-8	8.7	6102	9	6
CCCOC1CCCN(Cc2nc(-c3ccc(C(=O)OC)cc3)no2)C1 (configuration not stated)	-14	4	-5	10	3679	14	8
Cc1ccc(S(=O)(=O)N(C)C)cc1NC(=O)C1CCCCN1S(=O)(=O)c1ccccc1 (configuration not stated)	12	11	/	3.5	3037	9	3
COc1ccc(-n2c(C)cc(C(=O)COc3ccc(C)nc3[N+](=O)[O-])c2C)cc1	-5	-15	7	-8.9	2620	11	3
Cc1ccc(C(=O)N2CCN(c3ccccc3O)CC2)cc1S(=O)(=O)N1CCCCC1	-6	-1	12	-0.8	8021	-6	7
COC(=O)c1ccc(OC(=O)c2ccncc2)cc1O	-52	1	-4	3.1	3056	15	2
Cc1nn(C(C)C(=O)NCCc2ccco2)c(=O)c2nn(-c3ccccc3)c(C)c12 (configuration not stated)	-17	2	2	2.4	5182	7	6
N#Cc1c(-c2ccc(F)cc2)nc2n(c1=O)CCS2	-16	6	0	0.5	22077*	10	5
COc1ccccc1C(=O)N/C(=C/c1ccccc1)C(=O)Nc1ccc(C(=O)O)cc1	-14	/	-3	/	2398	/	/
Cc1cc([N+](=O)[O-])ccc1-c1ccc(C2Nc3ccccc3C(=O)N2O)o1 (configuration not stated)	1	-12	1	7.4	10642	0	-1
COc1cc(NC(=O)c2ccc(C(=O)c3ccccc3)cc2)cc(OC)c1OC	-14	2	1	-0.1	5764	5	4
O=c1cc(CSc2nnc(Nc3ccccc3)s2)nc2sccn12	-25	43	/	4.4	2905	-4	4
COc1ccc(OC)c(/C=N\NC(=O)c2ccc(COc3ccc(C)cc3[N+](=O)[O-])o2)c1	-12	/	-9	/	5991	/	/
O=C1C=C(Nc2ccc(O)cc2)CC(c2ccco2)C1 (configuration not stated)	-25	-7	0	1.2	23693*	-3	1
Cn1c(=O)cc(OCCCC(=O)N2CCN(c3ccccn3)CC2)c2ccccc21	-22	-8	-2	1.7	19114*	7	17
CSc1ccc(S(=O)(=O)Nc2ccc3c4c(cccc24)CC3)cc1	-15	-15	-16	36	9152	-4	-4
C#CCOCCOCCOCCNc1nc(N2CCN(C(=O)C(CCC(=O)O)n3cc(C(N)CO)nn3)CC2)nc(N2CCN(C(=O)C(C(C)CC)n3cc(C(N)Cc4ccc(O)cc4)nn3)CC2)n1 (configuration not stated)	/	-5	/	-1.6	/	-4	3
COc1ccc(N2CCN(C(=O)c3ccc(CS(=O)(=O)c4ccc(Br)cc4)o3)CC2)cc1	-5	-7	1	-0.9	6058	-10	2
CCCn1c(=O)c2c(ncn2C)n(CCC)c1=O	-29	-4	/	-1.3	6202	0	0
CNC(=O)c1cc(Cl)c(OC)c(OC)c1	-18	9	-2	4.4	2456	0	1

(further entries)
SMILES	PrP UTR inh	Sa ugtP lethal	BJeLR viability	Sa RN4220 lethal	Autofluor counter	Mtb hypoxia inh	Mtb hypoxia inh growth
COc1ccc(C(=O)N/N=C/c2c(C)nn(-c3ccccc3)c2OC)cc1	-16	/	1	/	5768	/	/
C=CCn1c(SCC(=O)Nc2cccc(S(=O)(=O)N(C)c3ccccc3)c2)nnc1C1CC1	-12	3	-7	2.2	6310	0	-6
O=C(CC1OC(=O)c2ccccc21)Nc1ccc(Cl)c(S(=O)(=O)N2CCCCC2)c1 (configuration not stated)	-11	0	-6	2.3	6150	3	1
COc1ccc(N2C(=O)C(Cl)=C(N(CCO)Cc3ccccc3)C2=O)cc1	-14	-2	2	4.2	3673	1	6
Cc1ccc(NC(=O)CSc2nnc(-c3ccoc3C)n2CCCN(C)C)cc1Cl	-2	1	1	-0.2	3820	0	5
CCCCNC(=O)COC(=O)c1ccc(F)cc1Cl	-13	14	-5	3.1	3583	17	10
Cc1ccccc1-c1oc(C)c(C)[n+]1[O-]	-14	2	0	5.6	3237	8	-2
Cc1cc2nc(Sc3c([N+](=O)[O-])nc(C)n3Cc3ccccc3)[nH]c2cc1C	-12	22	-1	2.7	2933	6	-5
Cc1cccc(OC(C)C(=O)OCC(=O)N2CCN(c3ccccc3)CC2)c1 (configuration not stated)	-7	10	/	3.1	4496	5	4
CC(C)(C)c1ccc(S(=O)(=O)N2CCN(CC(=O)N3CC(=O)Nc4ccccc43)CC2)cc1	-20	8	/	7.9	8725	3	7

Screens deposited in PubChem by several laboratories.
